From PubChem
Ecoli growth: blocks Escherichia coli growth. 0.21% of 330,000 active. AID 1053175. OD600, 23 h; hits give low values. OD600 absorbance (no concentration beside the values);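 active = OD600 absorbance below the run mean of sample wells minus 3.6 SD, in any replicate, cut at about 0.56 in these data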;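 also: stock transfer was 300 nL into about 60 µL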
UCH37 inh: inhibitors of human deubiquitinating enzyme UCH37 | purified proteasome/UCH37, Ub-AMC cleavage fluorescence | inhibition, % (test concentration not listed) | 0.33% of 330,000 active | AID 588478;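 active = mean of two replicates above 20%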;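 also: 0% = compound-free wells with enzyme and 100% = wells lacking proteasome; stock transfer was 100 nL into about 20 µL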
Target sequence (Q9Y5K5 whole entry, looked up): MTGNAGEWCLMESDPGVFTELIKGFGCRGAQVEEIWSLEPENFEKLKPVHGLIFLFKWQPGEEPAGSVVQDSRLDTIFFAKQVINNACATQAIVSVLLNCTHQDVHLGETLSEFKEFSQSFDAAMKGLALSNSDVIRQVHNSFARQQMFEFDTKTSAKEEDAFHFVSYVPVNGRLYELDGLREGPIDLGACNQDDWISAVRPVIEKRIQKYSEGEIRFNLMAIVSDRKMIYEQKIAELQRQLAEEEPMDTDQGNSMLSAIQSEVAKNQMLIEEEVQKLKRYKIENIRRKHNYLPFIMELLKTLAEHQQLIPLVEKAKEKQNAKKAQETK
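Test system – human UCH37 enzyme supplied as purified proteasome complex · Incubation – 30 min preincubation with enzyme, 25 min cleavage at room temperature · Detection – AMC fluorescence from Ub-AMC cleavage, excitation 355 nm, emission 460 nm · Benchmarks – no-proteasome wells (full inhibition) and compound-free wells (no inhibition)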
* marks the source's active call; other numbers are inactive results; i = inactive. Not all compounds are listed. The share of hits here may be higher or lower than overall.

UCH37 inh	Ecoli growth	Molecule
4.6	0.7	COc1ccc(NC(=S)NC(=NCS(=O)(=O)c2ccccc2)c2ccccc2)cc1
-103	0.72	CN(C)c1ccc(C=NNC(=S)NCc2ccco2)cc1
6.5	0.8	Cc1nn(-c2ccccc2)c(N2CCCC2)c1C=NNc1ccc(S(=O)(=O)Nc2ccccc2)cc1[N+](=O)[O-]
7.4	0.63	Cc1ccc(NC(=O)C(=O)NCc2ccc(C=NNC(=O)c3c(C)nc4cc(C)ccn34)o2)cc1
6.7	0.66	COc1ccc(C(=NNc2ccccc2C(=O)O)c2ccccc2)cc1
4.4	0.74	O=c1c2c3c(sc2ncn1N=Cc1cccnc1)CCCC3
2.4	0.74	Cc1csc(=NN=Cc2cccc([N+](=O)[O-])c2)n1Cc1ccco1
6.1	0.62	NC(=S)NN=Cc1coc2cc(Br)ccc2c1=O
-1.6	0.71	O=C(Cn1cc(C(F)(F)F)ccc1=O)NN=Cc1cccc(Cl)c1Cl
2.0	0.68	O=C(NN=Cc1ccc(Cl)s1)c1cccs1
2.9	0.73	Cc1ccc(CSc2nnc(SCC(=O)NN=Cc3c[nH]c4ccccc34)s2)cc1
0.5	0.66	Cc1cccc(OCC(=O)NN=Cc2cccn2C)c1C
10	0.67	Cc1cc(C)n(N=Cc2ccco2)c(=O)c1C#N
1.6	0.7	O=C(ON=Cc1ccc2c(c1)OCO2)c1ccc([N+](=O)[O-])cc1
-8.1	0.67	Oc1cccc(C=NNc2cccc3cccnc23)c1
4.4	0.65	Nc1nnn(CC(=O)NN=Cc2ccccc2)n1
-3.2	0.69	CC(=NNc1ccc(S(=O)(=O)N2CCCCC2)cn1)c1ccc(O)cc1
0.3	0.67	COc1ccc(C=NNC(=O)Cn2c(Cc3ccc(OC)c(OC)c3)nc3ccccc32)cc1
0.5	0.69	Cc1ccc(S(=O)(=O)Oc2ccc(C=NNC(=O)c3c(Cl)cnn3C)cc2)cc1
2.3	0.71	CC(=NOCC(=O)NC12CC3CC(CC(C3)C1)C2)c1cc2ccccc2o1
2.7	0.7	COc1ccc(C(=O)NCC(=O)NN=C(C)c2ccco2)cc1OC
0.8	0.68	CC(=Nn1cnnc1)c1ccccc1
5.3	0.65	Cc1nn(-c2ccccc2)c(Cl)c1C=NNC(=O)c1ccco1
2.2	0.7	Cc1ccc(S(=O)(=O)NN=Cc2c[nH]c3ccccc23)cc1
0.7	0.71	COc1ccc(/C=C\C(=O)NCC(=O)NN=Cc2cccc(OC)c2O)cc1
13	0.76	O=[N+]([O-])c1ccc(NN=Cc2c[nH]c3ccccc23)c(S(=O)(=O)Nc2ccc(Cl)cc2)c1
2.8	0.63	CC(C)=CCCC1=CCC(C=NNC(N)=O)C(C)C1 (centres undefined)
4.9	0.84	CCSc1ncc(C=NNc2ccc([N+](=O)[O-])cc2)n1C
1.7	0.7	Cn1ccnc1Sc1ccc(C=NNC(=O)c2ccccc2[N+](=O)[O-])cc1[N+](=O)[O-]
1.2	0.61	CC(=NNC(=O)c1nnn(-c2nonc2N)c1CSc1ccc(Cl)cc1)c1cccnc1
2.5	0.73	Cn1ccnc1COc1ccc(C=NO)cc1
2.5	0.66	O=C(NN=Cc1cccc(Br)c1)C1CC(=O)N(c2ccccc2)C1 (centres undefined)
2.3	0.68	Cc1ccc(C=NNC(=O)Cc2c(F)cccc2Cl)s1
4.4	0.76	COc1ccc(C(c2nnnn2C2CCCC2)N2CCc3ccccc3C2)cc1OC (centres undefined)
2.1	0.69	C=CCOc1cccc(C=NNC(=O)CC(=O)NC2CCCCC2)c1
2.7	0.68	CCCOc1c(Cl)cc(C=NO)cc1OCC
1.2	0.64	CCCCCOc1ccc(Br)cc1C(C)=NNC1=NCCN1
4.9	0.77	Cc1ccccc1OCCOc1cccc(C=NNC(=O)Cc2nnc(N)s2)c1
8.4	0.68	CC(/C=C/c1ccco1)=NNC(=O)c1cccnc1
-0.6	0.68	CCC(=NNC(=O)c1nnn(-c2nonc2N)c1-c1cccc(OC)c1)c1ccc(C)cc1
1.0	0.68	Cc1ccsc1C=NNC(=O)CNC(=O)c1cccc([N+](=O)[O-])c1C
-92	0.67	O=C(NN=Cc1c(O)ccc2ccccc12)c1ccc(Cn2cccn2)o1
2.4	0.67	NC(=S)NN=Cc1coc2ccc(Cl)cc2c1=O
5.7	0.69	O=C(O)COc1ccccc1C=NNC(=O)c1ccc2c(c1)OCCO2
18	0.67	COc1ccc(C(=NNc2ncnc3ccccc23)C(=O)O)cc1
11	0.67	C/C(C=NNC(=O)c1cccnc1)=C\c1ccco1
-0.2	0.65	COc1ccc(C=NNC(=O)Cn2nc([N+](=O)[O-])cc2C)c(OC)c1OC
14	0.67	COc1ccc(C=NNC2=NS(=O)(=O)c3ccccc32)cc1OC(C)=O
1.6	0.65	NN=C1CCCc2nonc21
2.7	0.7	O=C(Cc1ccccc1)Nc1cccc(C(=O)NN=Cc2ccco2)c1
-5.1	0.69	CC(=O)c1sc(NN=Cc2ccc(C)cc2)nc1C
2.0	0.75	CC(C)c1ccc(C=NNC(=O)CN(c2cccc(Cl)c2Cl)S(C)(=O)=O)cc1
5.8	0.69	COc1cccc(/C=C/C(=C2\C(=O)N(c3ccccc3)N=C2C)c2ccc(Br)cc2)c1OC
-0.7	0.7	Cc1cc(NC(=NS(=O)(=O)c2ccc(F)cc2F)c2ccccc2)no1
3.6	0.68	COc1ccc(Br)cc1C=Nn1c(-c2ccccc2)n[nH]c1=S
0.7	0.67	COc1ccc(NC(=O)ON=Cc2ccc(Br)cc2)cc1
1.0	0.73	COCCCN1C(=O)CSC1=NS(=O)(=O)c1ccccc1
4.0	0.75	CCOc1cc(C=NNS(=O)(=O)c2ccccc2)ccc1OS(=O)(=O)c1ccc(C)cc1
4.8	0.7	O=C(NN=Cc1cc2c(cc1[N+](=O)[O-])OCO2)c1ccc2c(c1)OCO2
5.0	0.71	O=C1N/C(=N\N=Cc2cccnc2)SC1Cc1ccc(SC(F)F)cc1 (centres undefined)

Exported with each value named: four of the compounds above
COc1ccc(C=NNC2=NS(=O)(=O)c3ccccc32)cc1OC(C)=O
  UCH37 inh: 14 | Ecoli growth: 0.67

NN=C1CCCc2nonc21
  UCH37 inh: 1.6 | Ecoli growth: 0.65

O=C(Cc1ccccc1)Nc1cccc(C(=O)NN=Cc2ccco2)c1
  UCH37 inh: 2.7 | Ecoli growth: 0.7

CC(=O)c1sc(NN=Cc2ccc(C)cc2)nc1C
  UCH37 inh: -5.1 | Ecoli growth: 0.69

Remaining list, next part
UCH37 inh	Ecoli growth	Molecule
7.7	0.72	CCOC(=O)C(C)C(C)=NNc1ccc([N+](=O)[O-])cc1[N+](=O)[O-] (centres undefined)
2.9	0.7	O=C(NC(C(=O)NN=Cc1c2ccccc2cc2ccccc12)c1n[nH]c(=O)c2ccccc12)c1ccccc1 (centres undefined)
1.7	0.72	Cc1ccc(OCC(=O)NN=Cc2ccc(O)cc2)c([N+](=O)[O-])c1
-1.0	0.68	Cc1cc(NN=Cc2ccc(O)cc2)nc(NS(=O)(=O)c2ccccc2)n1
6.3	0.71	Cc1cccc(C=NNc2nncc3ccccc23)c1
1.0	0.67	COC(=O)Oc1ccc(C=NNC(=O)CN(c2ccccc2Br)S(C)(=O)=O)cc1OC
2.4	0.71	CC(C)(C)C(=O)ON=C(N)c1ccc(-c2csnn2)cc1
0.8	0.69	CC(CC(=O)Nc1ccc(N(C)C)cc1)=NNC(=O)c1ccncc1
0.9	0.66	CCOC(=O)NN=Cc1cccc(OC)c1OC/C=C/c1ccccc1
10	0.72	COc1cc(C(=O)NN=Cc2sccc2C)cc(OC)c1OC
1.6	0.71	COc1ccccc1N(CC(=O)NN=Cc1ccc(OCC(=O)NCc2ccco2)cc1)S(=O)(=O)c1ccc(C)cc1
-1.4	0.65	CC(O)C(=O)NN=Cc1ccccc1C(=O)O (centres undefined)
-1.1	0.67	O=C(Cc1ccc(Cl)c(Cl)c1)NN=Cc1cccnc1
3.6	0.7	CCCCCCC=NNc1nnc(Cc2ccccc2)c(=O)[nH]1
0.9	0.71	O=C(NCc1ccncc1)C(=O)NN=Cc1ccccn1
3.4	0.66	CCN(CC)S(=O)(=O)c1cccc(C(=O)NN=Cc2c(C)nn(-c3ccccc3)c2Cl)c1
-148	0.64	CCN(CC)c1ccc(C=NNC(N)=O)cc1
i	0.7	CN(C)C=Nc1nc2nccc(-c3cccs3)n2n1
0.8	0.58	COc1ccc(C=NNC(=O)CC(=O)Nc2cccc(Cl)c2)cc1OC
3.7	0.69	O=C(O)c1cccc(NC(=S)NN=Cc2cccnc2)c1
-95	0.78	O=C(NN=Cc1ccc(O)cc1)c1ccc(COc2cc(Cl)ccc2Cl)o1
1.2	0.68	CC(=NNC(=O)CN1CCN(S(=O)(=O)c2ccc(C)cc2)CC1)c1ccco1
-1.3	0.71	CC[C@]12c3[nH]c4ccc(OC)cc4c3CCN1C(=O)C(CC(=O)NCC13CC4CC(CC(C4)C1)C3)C[C@@H]2C(=O)N1CCN(C(=O)c2ccco2)CC1 (some centres undefined)
2.6	0.68	Cc1cccc(C(=O)ON=Cc2ccc(Br)cc2)c1
4.0	0.68	O=C(NN=Cc1c[nH]c2ccccc12)c1ccccc1
6.6	0.74	C(/C=C/c1ccco1)=NN1CCN(c2ccccc2)CC1
11	0.71	O=C(NN=Cc1ccco1)c1cnccn1
2.6	0.75	C=C(C)Cn1c(SCC(=O)NN=Cc2ccccc2)nc2ccccc2c1=O
5.9	0.69	Cc1oc(C=NNS(=O)(=O)c2ccccc2)cc1Br
9.6	0.6	Cc1cc(C(=O)NN=Cc2ccc([N+](=O)[O-])o2)c(C)o1
3.2	0.68	Clc1ccccc1C=NNc1cc(N2CCOCC2)ncn1
3.0	0.71	Cc1ccc(-c2nc3sc(=Cc4ccco4)c(=O)n3n2)cc1
-0.1	0.67	CCn1nc(C)c(C=NNC(=S)Nc2ccc(Cl)cc2Cl)c1C
1.1	0.66	CSC(=NN(C)C(N)=O)c1ccccc1
10	0.67	O=[N+]([O-])c1ccc(C=NN/C(=N/c2ccccn2)c2ccccn2)cc1
4.3	0.73	CCN(N=Cc1ccc(N(C)C)cc1)c1nc2ccccc2[nH]1
0.5	0.69	COc1cc(C=NNC(=O)COc2ccc([N+](=O)[O-])cc2)ccc1OCC(=O)N1CCOCC1
3.4	0.65	Cc1ccc(C(=O)NN=Cc2ccc3c(c2)OCO3)o1
2.8	0.71	O=C(CSc1nnc(SCc2ccccc2Cl)s1)NN=Cc1ccc(C(=O)O)cc1
1.4	0.73	CCN(CC)c1ccc(C=NNC(=O)c2ccc([N+](=O)[O-])cc2)cc1

In the list so far, these contain a thiophene ring, fused or not.
UCH37 inh	Ecoli growth	Molecule
4.4	0.74	O=c1c2c3c(sc2ncn1N=Cc1cccnc1)CCCC3
2.0	0.68	O=C(NN=Cc1ccc(Cl)s1)c1cccs1
2.3	0.68	Cc1ccc(C=NNC(=O)Cc2c(F)cccc2Cl)s1
1.0	0.68	Cc1ccsc1C=NNC(=O)CNC(=O)c1cccc([N+](=O)[O-])c1C
10	0.72	COc1cc(C(=O)NN=Cc2sccc2C)cc(OC)c1OC
i	0.7	CN(C)C=Nc1nc2nccc(-c3cccs3)n2n1

Next part.
UCH37 inh	Ecoli growth	Molecule
3.9	0.65	Cc1ccccc1C(=O)Nc1ccc(C(=O)NN=Cc2ccccn2)cc1
6.2	0.65	NC(=S)NN=Cc1ccc(-n2nncc2-c2ccc(Cl)cc2)cc1
2.3	0.65	Cc1ccc(C=NNC(=O)c2ccc3c(c2)OCCO3)s1
-1.5	0.71	CC(=NNC(=O)CCCCCNC(=O)c1ccccc1)c1ccccc1O
5.4	0.63	O=C(CNc1ccc(F)cc1)NN=C1CCCc2ccccc21
-71	0.71	COc1ccc(OC)c(C=NNC(=O)CNC(=O)c2ccc(S(=O)(=O)N3CCCC3)cc2)c1
3.2	0.68	Cc1ccc(C)c(N(CC(=O)NN=Cc2ccc(-c3ccc([N+](=O)[O-])cc3)o2)S(=O)(=O)c2ccccc2)c1
2.9	0.67	COc1cccc(C=NNc2ccc(S(=O)(=O)O)cc2)c1O
1.2	0.71	Cc1ccc(C=Nn2c(-c3ccccc3)n[nH]c2=S)s1
8.3	0.66	Cn1cccc1C=NNC(=O)C(O)c1ccccc1 (centres undefined)
15	0.73	COc1cc(C=NNc2nc(=O)[nH]nc2C)ccc1O
0.7	0.69	CCOc1ccc(C(CC)=NNC(=O)C2(C)CC2(Br)Br)cc1 (centres undefined)
3.1	0.74	O=S(=O)(NN=Cc1ccc(OC2CSC2)cc1)c1ccccc1
5.6	0.62	Cc1n[nH]c(=S)n(N=Cc2cccc([N+](=O)[O-])c2)c1=O
1.4	0.64	O=S(=O)(NN=Cc1ccc(F)cc1)c1ccccc1
2.5	0.7	CC(=NNc1nc(N2CCOCC2)nc(N2CCOCC2)n1)c1cccc([N+](=O)[O-])c1
0.6	0.71	Cc1nn(Cc2ccccc2)c(C)c1C=NNC(=O)c1cccnc1
-1.8	0.71	Cc1ccnn1CC(=O)NN=Cc1cn[nH]c1-c1ccccc1
10	0.66	O=C(NN=Cc1ccc(Br)s1)c1ccncc1
8.4	0.65	Cc1ccccc1NC(=O)CCC(=O)NN=Cc1cc([N+](=O)[O-])ccc1O
0.7	0.73	COc1cccc(-c2c(C(=O)NN=Cc3ccc(C)s3)nnn2-c2nonc2N)c1
-105	0.76	Nc1c(S(=O)(=O)c2ccccc2)c2nc3ccccc3nc2n1N=Cc1cccc(O)c1
